Screening data deposited in PubChem BioAssay by ICCB-Longwood Screening Facility, Harvard Medical School.
Sa growth inh: S. aureus growth inhibition at 42 and 30 °C, primary screen, LtaS inhibitor project, RN4220, two temperatures | OD600, 20 h, 42 °C; hits give low values | relative growth, % (no concentration beside the values) | actives 0.53% (n = 170,000);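 active = growth at 42 °C up to 50% and 20 or more points under that at 30 °C, or under 10% at both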;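 note: 300 nL library stock went into each well; scaled to the means of positive and negative controls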
GIV-Gai inh: inhibitors of GIV peptide binding to Galpha-i3, primary screen, biochemical, fluorescence polarization, FITC-GIV GBA peptide, rat Galphai3. AID 1224905, 2016. percent of control (FP), % (no concentration beside the values). Guanine nucleotide-binding protein G(i) subunit alpha-3 (Rattus norvegicus), P08753. 90 min; hits give low values; scaled: aluminum fluoride 0%, vehicle 100%. actives 0.42% (n = 210,000);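 active = replicate mean at 85% of control or lower, very high polarization wells dropped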;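 note: wells of about 15 µL received 100 nL stock; the first replicate is given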
Target sequence (P08753 whole entry, looked up): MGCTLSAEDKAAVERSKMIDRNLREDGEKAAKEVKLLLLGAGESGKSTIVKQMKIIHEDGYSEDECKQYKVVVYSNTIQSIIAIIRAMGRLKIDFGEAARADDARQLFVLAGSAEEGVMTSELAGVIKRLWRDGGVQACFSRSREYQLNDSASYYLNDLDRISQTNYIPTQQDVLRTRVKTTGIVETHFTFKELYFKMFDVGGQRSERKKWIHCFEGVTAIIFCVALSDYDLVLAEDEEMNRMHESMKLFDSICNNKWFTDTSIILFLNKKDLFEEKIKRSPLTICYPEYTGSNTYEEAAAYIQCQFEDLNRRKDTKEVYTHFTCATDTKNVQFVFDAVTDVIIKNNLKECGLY
HCMV UL50-53 inh: inhibitors of HCMV UL50-UL53 interaction, biochemical, HTRF. AID 1918969, 2023. normalized percent inhibition. inhibition, % (no concentration beside the values). actives 0.15% (n = 190,000);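 active = both replicates at 50% or more, plus weaker picks with an unusually low signal ratio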;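 note: stock transfer was 100 nL into about 20 µL; 0% = negative control wells and 100% = wells with untagged competitor protein; inactives centre near -12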
Sa growth inh second temp: further read-out of Sa growth inh, marked with its call; relative growth, %; measured here: growth at 30 °C;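 optical density after 20 h as mean of two plates; 100% = untreated growth and lower means inhibition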
* = called active by the depositor; x = no result given; & = joins results of further samples.

SMILES	Sa growth inh	Sa growth inh second temp	GIV-Gai inh	HCMV UL50-53 inh
CCOC(=O)c1csc(Cn2nc(C)c(Br)c2C)n1	104	81	107	-1
C=CCN(c1ccccc1)S(=O)(=O)c1ccc(F)c(C(=O)Nc2ccc(C(C)C)cc2)c1	104	96	100	x
Cc1ccc(-c2nc(CS(=O)(=O)CC(=O)Nc3cc(C)ccc3C)c(C)o2)cc1	81	100	110	-2
O=C(CN1C(=O)COc2ccc(Cl)cc21)N1CCCC1	111	87	109	x
CCn1c(C(=O)NC(C)C)cc2c(=O)oc3ccccc3c21	x	x	103	-7
O=C(Cn1ccn2nc(-c3ccc4c(c3)OCO4)cc2c1=O)Nc1ccc(F)c(F)c1	x	x	102	-19
Cc1ccc(CCNC(=O)c2ccc(Nc3nc4ccccc4n4nnnc34)cc2)cc1	102	93	104	-7
COc1ccc(N=Cc2ccccc2OCc2ccccc2)cc1	98	85	x	-2
N=C(N)SCC1COc2ccccc2O1 (centres undefined)	103	96	102	5
CCOc1ccc2c(c1)cc(C(=O)Nc1ccc(F)cc1F)n2C	x	x	96	8
O=C(NCCOc1ccccc1Cc1ccccc1)c1ccc2c3c(cccc13)CC2	91	115	x	6
CCOc1ccc(CCNC(=O)Cn2nnc(-c3ccccc3)n2)cc1OCC	99	93	109	-2
N#C/C(=C\c1cc(C(F)(F)F)cc(C(F)(F)F)c1)S(=O)(=O)c1ccccc1	98	87	104	-45
CN(C)c1ccc(-c2nnc3sc(-c4ccncc4)nn23)cc1	x	x	106	-63
COc1cc(OC)cc(C(=O)N2c3ccc(F)cc3CCC2C)c1 (centres undefined)	93	87	109	-29
COc1cccc(CN(C(=O)c2oc3ccc(Br)cc3c2C)C2CCS(=O)(=O)C2)c1 (centres undefined)	108	82	98	1
COc1ccc(CNC(=O)Cc2nn(C)c(=O)c3ccccc23)cc1	106	87	x	3
COCCNC(=O)C1c2ccccc2C(=O)N(CCOC)C1c1ccc(F)cc1 (centres undefined)	97	89	101	-19
CC1Cc2ccccc2N1C(=O)c1cccc(N2C(=O)CCS2(=O)=O)c1 (centres undefined)	x	x	106	-14
CCCCn1c2ccccc2n2cc(C(C)(C)C)nc12	95	55	x	-7
CCc1ccc(C2CC(=O)Nc3nc(N)[nH]c(=O)c32)cc1 (centres undefined)	x	x	95	-4
CSc1cccc(NC(=O)CN2C(=O)CCc3cc(S(=O)(=O)N4CCCCC4)ccc32)c1	99	87	98	x
CCOC(=O)N1CCN(C(=O)CC(c2ccccc2)c2ccccc2)CC1	83	84	104	-14
CC(C)n1c(=O)[nH]c2cc(-c3noc(CN4C(=O)COc5ccc(Cl)cc54)n3)ccc21	x	x	103	-34
O=C(CSc1nnnn1-c1ccccc1)N1N=CCC1c1ccccc1 (centres undefined)	112	78	101	-1
O=C(C1CC(=O)N(C2CCCCC2)C1)N1CCCc2ccccc21 (centres undefined)	103	100	105	-29
COc1ccc(S(=O)(=O)NC2CC2)cc1C(=O)N1CCOCC1	99	104	105	-4
CCn1nnc(NCc2ccc(-c3ccc(Br)cc3Cl)o2)n1	x	x	96	-1
COc1ccccc1Cn1ccn(CC(=O)Nc2c(C)cc(C)cc2C)c(=O)c1=O	95	100	96	-14
Cc1onc(-c2ccccc2)c1C(=O)N1CCC(O)(c2ccc(Cl)cc2)CC1	99	75	94	-6
CNC(=O)CN1C(=O)c2cccc3cccc1c23	69	89	97	-57
CCOc1ccc(-c2c(C)nn3c(C)c(C(=O)NCCN(C)C)cnc23)cc1OCC	103	97	105	x
CCCCOc1ccc(NC(=O)c2oc3ccc(C)cc3c2C)c2cccnc12	x	x	97	-17
CSc1nnc2c(n1)OC(c1ccc(OCC(=O)O)cc1)Nc1ccccc1-2 (centres undefined)	x	x	109	-28
O=C(CCSc1nnc2scc(-c3ccccc3)n12)NCc1ccc2c(c1)OCO2	100	69	99	-15
COc1cc(CNC(=O)CCCCCCC(C)C)ccc1O	x	x	103	-7&-7&5
Fc1c(F)c(F)c(C=Nc2ccccc2N2CCOCC2)c(F)c1F	91	98	x	-1
N#CCn1c(C[S+]=C=N)nc2ccccc2c1=O	91	96	x	29
COc1ccc(OCc2nc(C#N)c(N3CCOCC3)o2)cc1	90	82	100	x
CCCS(=O)(=O)N1CCc2cc3cccc(C)c3nc21	x	x	104	-16
CC(C)CC(C(=O)Nc1cc(C(F)(F)F)ccc1N1CCOCC1)N1C(=O)C2CC=CCC2C1=O (centres undefined)	108	99	x	1
CCNc1nc(C)nc2sc3c(c12)CCCC3	77	76	x	-4
Cc1ccc2nc(NC(=O)CSc3nccn3Cc3ccc(Cl)cc3)sc2c1	143	84	100	x
COc1ccc(NC(=O)c2cc(S(=O)(=O)N3CCCC3)ccc2F)cc1	95	100	101	-38
Cc1cc(C)c(C#N)c(N2C3CCC2CC(O)(c2ccc(F)cc2)C3)n1 (centres undefined)	129	96	x	8
COc1ccc(/C(O)=C2\C(=O)C(=O)N(CCN3CCOCC3)C2c2ccc(Br)cc2)cc1 (centres undefined)	x	x	106	-41
CCc1ccc(N2Cc3ccncc3C2=O)cc1	73	81	99	x
FC(F)(F)c1nc(NCc2ccccc2)nc2c1CCCCC2	101	95	102	x
Cc1ccc(Cl)cc1NC(=O)CSc1nc(C)c(C)c(C)c1C#N	102	89	109	-3
COC(=O)c1cc(S(=O)(=O)NCc2ccc(OC)cc2)cn1C	76	78	100	-28
CC1Cc2ccccc2N1C(=O)CSc1nnc(N)s1 (centres undefined)	97	100	102	-30
Cc1ccc(CNC(=O)CSc2nc3ccccc3o2)cc1	89	81	x	-33
CCOC(=O)C1CCCN(C(=O)CN2C(=O)c3ccccc3S2(=O)=O)C1 (centres undefined)	94	93	x	12
On1nnc2ccccc21	87	92	x	-16
CCOc1ccccc1NC(=O)CSc1nc2ccccc2nc1Cc1ccc(C)cc1	66	87	101	x
O=C(Nc1cc(F)ccc1F)c1cc2ccccn2n1	x	x	106	-30
O=C(CC(C(=O)O)n1cccn1)c1ccc(Br)cc1 (centres undefined)	99	102	99	-23
CCOc1ccc(NC(=O)CCc2c(C)nc3c(c(C)nn3C(C)(C)C)c2C)cc1	70	81	100	x
COC(=O)CNC(=O)c1cc2sccc2n1Cc1ccccc1	102	86	103	-2
O=c1ccc2cc(S(=O)(=O)NCc3ccc(Br)cc3)ccc2[nH]1	94	87	101	x

Overlap with the part before: 4 entries; new compounds follow.
SMILES	Sa growth inh	Sa growth inh second temp	GIV-Gai inh	HCMV UL50-53 inh
O=C(CC(C(=O)O)n1cccn1)c1ccc(Br)cc1 (centres undefined)	99	102	99	-23
CCOc1ccc(NC(=O)CCc2c(C)nc3c(c(C)nn3C(C)(C)C)c2C)cc1	70	81	100	x
COC(=O)CNC(=O)c1cc2sccc2n1Cc1ccccc1	102	86	103	-2
O=c1ccc2cc(S(=O)(=O)NCc3ccc(Br)cc3)ccc2[nH]1	94	87	101	x
CC(C)Nc1nc(NC(C)C)nc(C(=O)OCCO)n1	78	82	108	-22
COc1cccc(C(=O)NCCn2c(-c3ccccc3)nc3cccnc32)c1	x	x	109	-16
OC(CN1CCN(c2ccc(F)cc2)CC1)c1c[nH]c2ccc(F)cc12 (centres undefined)	x	x	111	-15
CSc1nc2c(Cl)cccc2c2c1c(=O)n(Cc1ccc(Cl)cc1)n2C	88	90	100	-43
CC(C)CC1CC(C)(C(=O)CSc2n[nH]c(-c3ccccc3)n2)OC1=O (centres undefined)	108	73	101	0
O=C(Nc1ccc2[nH]ccc2c1)c1cccnc1Oc1ccccc1	121	93	97	-8
CCN(CC(=O)NC1CCS(=O)(=O)C1)CC(=O)c1c(N)n(Cc2ccccc2)c(=O)n(C)c1=O (centres undefined)	104	90	x	-18
NC(=S)Cc1c[nH]c2ccccc12	54	61	118	-2
NC(=O)c1ccc(NC(=O)c2ccccc2OC(F)F)cc1	101	84	x	-19
COC(=O)CNC(=O)C1c2ccccc2C(=O)N(Cc2ccc(F)cc2)C1c1ccc(OC)cc1 (centres undefined)	98	85	100	1
CCOC(=O)c1ccccc1NC(=O)CSc1nc2ncccc2o1	84	86	105	x
COc1cc(-c2nc(SCC(=O)Nc3ccc4c(c3)OCO4)c(-c3ccccc3)[nH]2)cc(OC)c1OC	105	65	97	-18
COC(=O)C1C(=O)C2=C(CC1C)NC(C)=C(C(=O)OC1CCCCC1)C2c1ccc(N(C)C)cc1 (centres undefined)	111	109	105	-14
CCCCOc1ccc(C(=O)NCCc2sc(-c3cccc(F)c3)nc2C)cc1	80	93	105	x
CCn1c(=O)c2sccc2n2c(CCCC(=O)N3CCC(C(N)=O)CC3)nnc12	87	90	102	-29

Four compounds from above, ordered by number of heavy atoms, smallest number first.
SMILES	Sa growth inh	Sa growth inh second temp	GIV-Gai inh	HCMV UL50-53 inh
NC(=O)c1ccc(NC(=O)c2ccccc2OC(F)F)cc1	101	84	x	-19
OC(CN1CCN(c2ccc(F)cc2)CC1)c1c[nH]c2ccc(F)cc12 (centres undefined)	x	x	111	-15
COc1cccc(C(=O)NCCn2c(-c3ccccc3)nc3cccnc32)c1	x	x	109	-16
CCN(CC(=O)NC1CCS(=O)(=O)C1)CC(=O)c1c(N)n(Cc2ccccc2)c(=O)n(C)c1=O (centres undefined)	104	90	x	-18

Going on with the list:
SMILES	Sa growth inh	Sa growth inh second temp	GIV-Gai inh	HCMV UL50-53 inh
Cc1csc(SCc2cccc(S(=O)(=O)N(C)C)c2)n1	106	88	x	-3
CCCc1ccc(S(=O)(=O)N2CCCC2c2nnc(C(=O)Nc3cccc(F)c3)s2)cc1 (centres undefined)	x	x	102	-22
COC(=O)c1ccc(NC(=O)Cn2nc3c4c5c(sc4ncn3c2=O)CCCC5)cc1	x	x	119	1
Cc1ccc(S(=O)(=O)c2nnn3c2nc(NCC2CCCO2)c2cc(Cl)ccc23)cc1C (centres undefined)	x	x	117	-10
CCS(=O)(=O)N1CCc2cc(C(=O)Nc3ccc(C)c(Cl)c3)ccc21	118	91	102	1
Cc1ccc(NC(=O)Cn2nnc(C(=O)O)c2C(=O)O)cc1F	x	x	94	4
CC1(C)CC(=O)c2c(Cc3ccccc3)n[nH]c2C1	96	91	x	-32
CCN(CC)CCCNC(=O)c1cccn1-c1nnc(N2CCOCC2)s1	x	x	111	-7
CCN1CCN(c2oc(/C=C/c3ccccc3OC)nc2C#N)CC1	121	89	102	-83
Cc1[nH]c2ccc(Cl)cc2c(=O)c1CN1CCN(C)CC1	96	81	103	-9
Cc1ccc(CNC(=O)c2cc3ccc4cccnc4c3[nH]2)cc1	99	102	104	x
COC(=O)c1c(C)[nH]c(C(=O)N2CCN(c3ccccc3)CC2)c1C	97	95	x	-12
CCOC(=O)C1=C(CC)Nc2ccccc2N=C1NC(=O)C1CC(=O)N(c2ccc3c(c2)OCCO3)C1 (centres undefined)	87	96	x	6
Cc1csc(-n2[nH]c(C)c(CCC(=O)NC(C)C)c2=O)n1	x	x	101	-20
NC(=O)C1CCCN(C(=O)Cc2n[nH]c(=O)c3ccccc23)C1 (centres undefined)	95	85	x	-13
Cc1ccc(-c2cn3nc(N4CCC(C(=O)NCCCN5CCCCC5)CC4)sc3n2)cc1	96	80	97	x
Cc1cc2c([nH]c(=O)c3c(=O)[nH]c(C(F)(F)F)nc32)s1	107	96	135	-99
CC(C)(C)n1ncc(C(=O)O)c1C1CCNCC1	90	90	103	-13
COC(=O)c1cc(=O)n(Cc2ccccc2)c(=NCc2ccccc2)s1	84	88	98	-12

Laid out differently: results already given.
| smiles | Sa growth inh | Sa growth inh second temp | GIV-Gai inh | HCMV UL50-53 inh |
| --- | --- | --- | --- | --- |
| Cc1ccc(-c2cn3nc(N4CCC(C(=O)NCCCN5CCCCC5)CC4)sc3n2)cc1 | 96 | 80 | 97 | x |
| Cc1cc2c([nH]c(=O)c3c(=O)[nH]c(C(F)(F)F)nc32)s1 | 107 | 96 | 135 | -99 |
| CC(C)(C)n1ncc(C(=O)O)c1C1CCNCC1 | 90 | 90 | 103 | -13 |
| COC(=O)c1cc(=O)n(Cc2ccccc2)c(=NCc2ccccc2)s1 | 84 | 88 | 98 | -12 |
